# UCH37 DUB inh: human UCH37 deubiquitinating enzyme inhibition; Q9Y5K5; purified proteasome/UCH37, Ub-AMC cleavage fluorescence; inhibition, % (test concentration not listed); 0.33% of 330,000 active; AID 588478;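 active = mean of two replicates above 20%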;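 note: 0% = compound-free wells with enzyme and 100% = wells lacking proteasome; stock transfer was 100 nL into about 20 µL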
# Target sequence (Q9Y5K5 whole entry, looked up): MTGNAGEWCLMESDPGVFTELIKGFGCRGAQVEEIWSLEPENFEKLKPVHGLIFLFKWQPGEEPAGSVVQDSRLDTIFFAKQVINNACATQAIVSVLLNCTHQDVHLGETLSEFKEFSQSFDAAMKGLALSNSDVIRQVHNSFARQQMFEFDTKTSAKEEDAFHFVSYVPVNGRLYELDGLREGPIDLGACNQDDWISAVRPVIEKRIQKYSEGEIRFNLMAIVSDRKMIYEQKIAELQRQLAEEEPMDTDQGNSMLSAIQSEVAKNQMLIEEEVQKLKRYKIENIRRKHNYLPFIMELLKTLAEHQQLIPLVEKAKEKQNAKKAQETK
#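 Material: Human UCH37 enzyme supplied as purified proteasome complex | Schedule: 30 min preincubation with enzyme, 25 min cleavage at room temperature | Detection: AMC fluorescence 355/460 nm | Measure: % inhibition of Ub-AMC cleavage fluorescence | Controls: Wells without proteasome as full block, compound-free enzyme plus substrate as uninhibited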
# Ecoli rRNA inh: selective bacterial rRNA inhibition in E. coli; E. coli WT GFP vs humanized-ribosome RFP mutants, fluorescence, 24 h; hits give low values; DMSO median 0, no signal -100; GFP signal change (wild-type ribosome), % (concentration not given with the values); 1.6% of 350,000 active; AID 720706;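 active = significant combined selectivity score with lowered wild-type GFP, culture density cut under 30%, mutant RFP and density less affected; inactive = any of these conditions unmet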; note: one replicate is shown; some compounds called inactive have numbers as strong as hits
# E coli growth: E. coli growth inhibition. Escherichia coli growth, OD600, 23 h; hits give low values. OD600 absorbance (test concentration not listed). 0.21% of 330,000 active. AID 1053175;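 active = OD600 absorbance below the run mean of sample wells minus 3.6 SD, in any replicate, cut at about 0.56 in these data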;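 note: stock transfer was 300 nL into about 60 µL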
# Beta apoptosis: beta cell apoptosis inhibition | 0.8% of 300,000 active | INS-1E cytokine-induced death, ATP luminescence, 48 h; percent of positive-control rescue, neutral wells zero | AID 435005 | protection from apoptosis, % (test concentration not listed);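 active = all replicates at 75% or more, or half of them and the mean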;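 note: 0% = cytokine-treated negative control wells and 100% = positive control rescue; higher means more ATP so stronger rescue from cytokine killing; wells of about 40 µL received 100 nL stock; the first replicate is given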
# MLL AF4-AF9 inh: MLL-AF4/AF9 protein interaction inhibition | P42568 | AlphaScreen, biotin-AF4 peptide binding to FLAG-AF9 | inhibition, % at 10 µM | 0.47% of 350,000 active | AID 651704;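 active = every replicate reaching a set inhibition limit, whatever the replicate mean, cut at about 25% in these data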;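 note: 0% = plate neutral control median and 100% = total signal loss; the record names both 10 and 1 µM as test concentration; the first replicate is given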
# Target sequence (P42568 whole entry, looked up): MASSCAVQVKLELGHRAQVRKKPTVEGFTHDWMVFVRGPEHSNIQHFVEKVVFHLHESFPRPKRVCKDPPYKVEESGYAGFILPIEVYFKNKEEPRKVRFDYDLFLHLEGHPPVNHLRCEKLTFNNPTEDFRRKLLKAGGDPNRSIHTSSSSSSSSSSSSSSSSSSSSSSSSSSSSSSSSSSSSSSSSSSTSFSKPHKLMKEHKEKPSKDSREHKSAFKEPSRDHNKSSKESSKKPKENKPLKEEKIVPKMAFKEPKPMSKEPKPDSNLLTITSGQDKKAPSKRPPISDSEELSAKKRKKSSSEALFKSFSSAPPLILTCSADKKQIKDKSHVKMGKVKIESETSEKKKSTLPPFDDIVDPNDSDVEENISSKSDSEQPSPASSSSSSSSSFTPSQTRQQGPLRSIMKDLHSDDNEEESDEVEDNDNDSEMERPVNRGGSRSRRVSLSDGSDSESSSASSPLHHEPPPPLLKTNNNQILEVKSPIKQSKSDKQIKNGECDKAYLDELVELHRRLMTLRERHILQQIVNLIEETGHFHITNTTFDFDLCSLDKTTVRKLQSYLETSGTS
# FGF22 binding: binders of recombinant human FGF22 by thermal shift; 1.5% of 340,000 active; SYPRO orange fluorescence; percent of sucrose octasulfate shift, DMSO zero; calls only at 9.99 µM; Q9HCT0;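 active = melting point raised past a set limit in the mean and every replicate; three in four hits are not shown here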
# Target sequence (Q9HCT0 whole entry, looked up): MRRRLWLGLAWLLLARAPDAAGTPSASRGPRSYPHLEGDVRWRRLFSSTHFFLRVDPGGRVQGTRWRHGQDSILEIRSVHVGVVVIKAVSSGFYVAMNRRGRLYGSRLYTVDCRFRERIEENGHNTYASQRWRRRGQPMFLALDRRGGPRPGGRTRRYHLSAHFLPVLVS
# T cruzi repl: T. cruzi replication inhibition. AID 1885. 1.4% of 300,000 active. T. cruzi beta-gal in NIH3T3, luminescence, 90 h. inhibition, % (test concentration not listed);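 active = mean inhibition across valid replicates above about 55%, limit read from the data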;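 note: signal also drops with host cell toxicity which is not excluded here; 0% = plate median of DMSO wells and 100% = zero luminescence signal; higher percent means less beta-gal luminescence so fewer parasites; stock transfer was 50 nL into about 50 µL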
# A1 inh: inhibitors of the anti-apoptotic protein A1, read as caspase activation; MEF A1-2A-BIM cells, Caspase-Glo 3/7 luminescence, 3 h; percent of clofoctol response, vehicle zero; caspase activation, % (test concentration not listed); 0.066% of 330,000 active; AID 2462;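 active = over half of replicate activation scores above 10%, or exactly half above 10 with the replicate mean above 10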;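 note: wells of about 30 µL received 50 nL stock; many hits fall short of the cut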
# Ecoli rRNA inh OD600: recorded beside Ecoli rRNA inh, whose call it bears; OD600 change, %; measured here: OD600 growth;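 optical density of the mix in the first replicate; 0 = DMSO median and -100 = no signal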
# Ecoli rRNA inh RFP: further read-out of Ecoli rRNA inh, marked with its call; RFP signal change, %; measured here: RFP humanized mutant strains;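 first replicate; 0 = DMSO median and -100 = no signal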
# * marks the source's active call; other numbers are inactive results; i = inactive; . = not tested or not shown. These rows are one share of the data, so the mix of outcomes need not match the whole.
# Every second line gives: UCH37 DUB inh	Ecoli rRNA inh	Ecoli rRNA inh OD600	Ecoli rRNA inh RFP	E coli growth	Beta apoptosis	MLL AF4-AF9 inh	FGF22 binding	T cruzi repl	A1 inh
- Cn1c2ccccc2c2nnc(SC3CCOC3=O)nc21 (stereo not given)
  8.4	.	.	.	0.66	-4	.	.	6	0.1
- CC(C)(O)C#Cc1ccc(CN2CCN(C3CCCC3)C(CCO)C2)cc1 (stereo not given)
  2.8	8	5	-2.6	0.71	-13	.	i	3	0.7
- COc1ccc(-c2cc(C(F)(F)F)n3nc(C(=O)N4CCCCC4)cc3n2)cc1OC
  -6.3	.	.	.	0.71	3	.	.	0	0.0
- O=C(CSc1nnc(CNC(=O)c2c(F)cccc2Cl)o1)NCc1ccc(F)cc1
  3.0	3	9	0.6	0.65	-1	-0.2	i	-20	0.1
- CC(=O)c1cccc(NC(=O)C(C)OC(=O)CN2C(=O)NC(C)(C)C2=O)c1 (stereo not given)
  2.3	11	10	-0.3	0.6	-2	1.3	i	.	-1.0
- O=C1NC(=Nc2ccccc2)SC1(CO)CO
  1.6	7	8	-1.1	0.68	-6	0.6	i	2	0.6
- Cc1ccc(S(=O)(=O)N2CCC(=O)N(C(COCc3ccc(Cl)cc3)C(C)C)CC2)cc1 (stereo not given)
  0.1	-16	-24	-7.3	0.82	3	-15	i	24	-0.7
- CCCS(=O)(=O)N1CCC(C(=O)N2CCOCC2)CC1
  1.8	.	.	.	0.71	1	.	.	-23	-0.3
- O=c1cc(NCC2CCCO2)[nH]c(=O)n1-c1ccc(Cl)cc1 (stereo not given)
  3.0	14	5	5.8	0.69	-4	-19	i	21	-0.3
- NS(=O)(=O)c1ccc(CCNCC(=O)NCc2ccccc2Cl)cc1
  2.5	7	0	2.6	0.69	0	-0.1	i	16	-0.2
- CC(C)NC(=O)c1noc2cc([N+](=O)[O-])ccc12
  4.6	.	.	.	0.67	-4	.	.	0	-0.5
- Cc1nc(NC(=O)c2ccc(Br)o2)sc1C
  6.8	5	3	-8.6	0.66	5	.	.	15	0.5
- COc1ccc(NC(=O)COC(=O)CN2C(=O)NC(C)(C)C2=O)cc1
  5.9	.	.	.	0.67	-1	-2.0	i	.	-0.1
- Cc1c(C(c2ccccc2)c2c(C)n(C)n(-c3ccccc3)c2=O)c(=O)n(-c2ccccc2)n1C
  4.6	14	11	2.5	0.71	-1	-1.3	i	-4	0.0
- O=C(/C=C/c1ccc(OC(F)F)cc1)OCC(=O)N1CCC(c2ccccc2)=N1
  1.4	.	.	.	0.7	-2	-1.0	i	.	-1.2
- CN1C[C@@H]2[C@@H]3C(=O)N(Cc4ccccc4)C(=O)[C@@H]3[C@](Cc3ccccc3)(C1=O)N2C(=O)c1ccc(Cl)c(Cl)c1
  4.2	-10	-15	4.5	.	.	3.7	i	.	.
- NNC(=O)c1cn2ccccc2n1
  2.1	.	.	.	0.72	-4	.	.	-17	1.9
- CC(C)CCc1noc(CN2CCC(CCN3CCCC3=O)CC2)n1
  0.2	.	.	.	0.66	1	-2.1	i	15	0.2
- O=C(NCc1cnc2ccccn12)C1CCC(=O)N(Cc2ccccc2F)C1 (stereo not given)
  0.3	8	21	-1.5	0.73	-6	0.0	i	-5	0.4
- O=C(NN=C1CCCC1)c1ccc(Br)cc1
  6.2	9	7	8.9	0.62	2	-1.0	i	-5	0.7
- Cc1oc2ccc(O)c(CN3CCOCC3)c2c1C(=O)c1ccc(Cl)cc1
  -0.7	.	.	.	0.73	-7	.	.	0	1.1
- Cc1ccc2nc(-c3ccc(NC(=O)CN(c4ccccc4C)S(C)(=O)=O)cc3)sc2c1
  -139	.	.	.	0.75	26	.	.	11	-0.5
- COc1ccc(N(CC(=O)N2CCOCC2)S(C)(=O)=O)cc1OC
  2.5	7	-2	-0.1	0.72	-2	-3.2	i	-14	-0.2
- COc1ccc(OCCn2cncn2)cc1
  0.3	.	.	.	0.68	-1	.	.	-13	0.5
- N#Cc1ccc(NC(=O)COC(=O)c2ccc(F)c(S(=O)(=O)N3CCOCC3)c2)cc1
  0.9	-6	-2	0.9	0.68	-5	0.5	i	.	0.4
- COc1ccc(CCC(=O)N2CCN(c3ccc(OC)cc3)CC2)cc1
  1.6	6	4	0.5	0.7	.	0.6	i	8	.
- CCCCN(C)C(=O)CCC(=O)Nc1ccc2nc(N3CCOCC3)cc(C)c2c1
  -451	.	.	.	0.64	7	.	.	6	0.9
- CC(C)[C@H](NC(=O)NCc1cccs1)C(=O)O
  -1.5	.	.	.	.	0	.	.	-3	-0.4
- O=C(COc1ccccc1O)c1cccs1
  6.5	.	.	.	0.65	0	.	.	-7	0.3
- CCn1cc(C(=O)OCC(=O)Nc2cccc(C)c2)c(=O)c2ccc(C)nc21
  3.5	-31	-56	4.1	0.64	-6	-8.2	i	0	-0.2
- Cc1ccccc1NC(=O)c1ccc2nccnc2c1
  3.1	8	5	-2.1	0.69	-13	-4.7	i	-2	-0.3
- CCOC(=O)CSc1nc(C)nc2c1sc1nc(C)c(C(C)=O)c(-c3ccc(OC)cc3)c12
  3.3	14	18	4.9	0.64	7	-15	i	-5	-0.5
- CN(CCC1CCCCO1)C(=O)CCc1nnc(CCc2ccccc2)o1 (stereo not given)
  -0.1	2	2	-2.5	0.68	3	-1.1	i	-4	-0.5
- N#CC(C#N)=NNc1ccc([N+](=O)[O-])cc1
  15	-39	-62	-13	0.33*	14	6.7	i	52	-5.2
- CCc1ccc(OCCCCCn2ccnc2)cc1
  8.2	-19	-10	-1.1	0.59	3	3.6	i	38	0.0
- O=C(CSC1c2ccccc2C(=O)N1c1ccccc1)N1CCOCC1 (stereo not given)
  0.7	9	4	-8.6	0.67	-6	-16	i	-19	-0.6
- Cc1ccccc1OCc1nnc(SCC(=O)Nc2ccc3nc(SCC(=O)Nc4ccccc4)sc3c2)n1C
  0.9	.	.	.	0.72	-1	.	.	-5	0.3
- COc1ccc(N2C(=O)C(F)(F)C2c2cccc(F)c2)cc1 (stereo not given)
  3.6	12	0	-4.9	0.7	-1	-1.8	i	-1	1.0
- Cc1cc(C(=O)N/N=C/c2ccc(-c3cccc([N+](=O)[O-])c3)o2)n[nH]1
  .	8	8	-1.0	.	-8	-0.8	i	1	0.8
- COc1ccc2oc3cc(C)[n+]([O-])c(-c4ccc(C)cc4)c3c2c1
  -9.0	.	.	.	0.69	-2	.	.	12	0.3
- COC(=O)CSc1c(-c2ccccc2)c2cc(Cl)ccc2[nH]c1=O
  -2.2	.	.	.	0.68	.	.	.	15	-0.1
- COCCCNc1nc2c(c(=O)[nH]c(=O)n2C)n1CCCc1ccccc1
  2.0	.	.	.	0.77	.	.	.	6	0.9
- O=C(O)c1ccccc1-c1ccccc1C(=O)Nc1cccc(-c2nc3ccccc3o2)c1
  1.7	-47	-73	-8.0	0.66	-4	-1.6	.	1	0.9
- CCC(C)NC(=O)CS(=O)Cc1nc(-c2ccccc2C)oc1C (stereo not given)
  0.8	1	-5	-1.5	0.79	-7	3.5	i	1	0.2
- Cc1ccc2c(c1)N(CCC(=O)NCCN1CCOCC1)C(=O)CO2
  4.4	.	.	.	0.69	3	.	.	-12	-1.7
- CCOC(=O)/C=C1\CC(C(=O)OCC)Oc2ccccc21 (stereo not given)
  0.5	5	0	6.3	0.69	.	-6.3	i	.	.
- CNC(=O)/C(=C\c1ccc([N+](=O)[O-])cc1)NC(C)=O
  5.9	.	.	.	0.72	-5	.	.	6	-0.9
- CCOC(=O)c1sc(NC(=O)C(CC)Sc2nc3ccccc3[nH]2)nc1C (stereo not given)
  0.7	.	.	.	0.69	-2	.	.	15	-0.1
- Cc1ccc(C(=O)O)cc1-c1ccc(C=C2C(=O)c3ccccc3C2=O)o1
  .	9	5	0.5	.	1	0.3	i	-9	0.1
- Fc1ccc(-c2nnn(Cc3ccccc3Cl)n2)cc1
  1.7	-9	3	3.0	0.68	-2	-2.1	i	-2	0.3
- NNC(=O)C1CC1c1ccccc1 (stereo not given)
  2.8	4	6	-1.5	0.65	-8	4.2	i	-4	0.1
- CN(C)CCCN(C(=O)COc1ccccc1)c1nc2ccc(F)cc2s1
  0.7	6	2	-4.3	0.69	-9	16	i	47	0.6
- Cc1ccccc1NS(=O)(=O)c1ccc(C(=O)N2CCN(c3ccccn3)CC2)cc1
  3.1	-13	-7	3.7	0.7	3	0.5	i	4	0.1
- Cc1cc2c(ncn2C)c(NS(=O)(=O)c2ccc(Cl)cc2)c1C
  1.8	3	5	-1.2	0.68	-8	-3.7	i	-1	0.1
- CCOc1ccc(CCNC(=O)c2ccc3c(=O)[nH]c4c(C(=O)NC(C)C)sc(=S)n4c3c2)cc1
  15	-9	13	2.3	0.71	19	4.4	i	-3	0.4
- Cn1c(N)c(C(=O)COC(=O)/C=C/c2cccc(F)c2)c(=O)n(C)c1=O
  4.4	-12	-7	0.9	0.67	1	-0.4	i	.	-0.5
- COc1ccccc1CNc1ncnc2cc(Cl)ccc12
  -44	12	10	-0.5	0.67	.	-3.5	.	21	.
- C[C@]12C=C[C@H](O)CC1=CCC1C2CC[C@@]2(C)C1CCC21OCCO1 (stereo not given in full)
  -1.6	-39	-61	10	0.67	1	0.5	i	.	0.6
- O=C(c1ccccc1O)N1N=C(c2ccccc2)CC1(O)C(F)(F)F (stereo not given)
  4.3	-46	-73	-13	0.68	22	-0.4	i	-3	0.5
- O=C(NC1CCCCCCC1)C1=COCCO1
  6.5	.	.	.	0.75	10	.	.	-7	0.3

# Arranged by the number under MLL AF4-AF9 inh (high to low): three of the compounds above.
molecule | UCH37 DUB inh | Ecoli rRNA inh | Ecoli rRNA inh OD600 | Ecoli rRNA inh RFP | MLL AF4-AF9 inh | FGF22 binding
CN(C)CCCN(C(=O)COc1ccccc1)c1nc2ccc(F)cc2s1 | 0.7 | 6 | 2 | -4.3 | 16 | i
COc1ccc(CCC(=O)N2CCN(c3ccc(OC)cc3)CC2)cc1 | 1.6 | 6 | 4 | 0.5 | 0.6 | i
Cc1ccc(S(=O)(=O)N2CCC(=O)N(C(COCc3ccc(Cl)cc3)C(C)C)CC2)cc1 (stereo not given) | 0.1 | -16 | -24 | -7.3 | -15 | i

# (continued)
# Every second line gives: UCH37 DUB inh	Ecoli rRNA inh	Ecoli rRNA inh OD600	Ecoli rRNA inh RFP	E coli growth	Beta apoptosis	MLL AF4-AF9 inh	FGF22 binding	T cruzi repl	A1 inh
- CCCc1cc(=O)[nH]c(SCC(N)=O)n1
  1.3	.	.	.	0.7	-7	.	.	.	-0.3
- CCc1ccc(NC(=O)C2C3C=CC(C4CC34)C2C(=O)O)cc1 (stereo not given)
  0.1	.	.	.	0.68	-11	.	.	11	0.5
- CC(C)Oc1ccc(S(=O)(=O)N2CCCCC2)cc1NC(=O)CN1CCCC1c1cccs1 (stereo not given)
  4.6	8	2	0.4	0.72	92*	0.6	i	.	-0.5
- Cc1c(C(=O)NCCSCc2ccco2)cccc1[N+](=O)[O-]
  3.3	.	.	.	0.68	-5	.	.	-15	0.1
- O=C(NCC1COc2ccccc2O1)c1cc(S(=O)(=O)N2CCOCC2)ccc1F (stereo not given)
  1.7	0	-4	-2.5	0.7	.	-18	i	.	.
- COc1cc(C(=O)NCCN2CCOCC2)cc(OC)c1OC
  0.9	13	7	-1.3	0.72	-1	1.3	.	5	-0.1

# Screens from PubChem.
